Screening results from PubChem BioAssay.
CSC inhib = cancer stem cell inhibition; cancer stem cell-like cells viability, luminescence; inhibition, % at 7.5 µM; 300,000 tested, 1.1% active; AID 2717;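 active = mean at 75% or more and at least half the replicates too; tested in HMLE shEcad cells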;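 also: 0% = median of negative and 100% = median of positive control wells; the first replicate is given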
HIV Env fusion = HIV envelope-mediated fusion inhibition. AID 651610. inhibition, % at 12.3 µM. 360,000 tested, 1.1% active. HeLa-JRFL Env/CEM21 cell fusion, luciferase;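 active = mean replicate inhibition score of at least 50 and every replicate individually at or above 50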;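 also: 0% = plate neutral controls and 100% = maraviroc near 300 nM; one replicate is shown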
Rce1 inh = blocks yeast Ras-converting enzyme | AID 2563 | yeast membranes, quenched prenylated peptide cleavage fluorescence | 290,000 tested, 0.27% active | calls only;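 active = fall in fluorescence gain of 50% or more versus controls, with final raw signal at or below 3038400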;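 also: plate controls were neutral control wells for no effect and wells lacking membranes for full effect; tested at 10 µM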
Target sequence (Q03530 whole entry, looked up): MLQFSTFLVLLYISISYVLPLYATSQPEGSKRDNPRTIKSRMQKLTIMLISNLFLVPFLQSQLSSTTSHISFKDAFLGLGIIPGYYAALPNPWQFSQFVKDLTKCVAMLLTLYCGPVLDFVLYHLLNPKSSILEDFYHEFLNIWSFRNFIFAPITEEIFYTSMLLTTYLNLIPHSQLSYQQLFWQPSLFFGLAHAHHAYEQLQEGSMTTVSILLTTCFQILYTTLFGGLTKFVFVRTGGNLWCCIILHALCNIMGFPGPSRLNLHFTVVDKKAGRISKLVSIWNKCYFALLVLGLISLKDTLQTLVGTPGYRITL
PABP polyA inh = PABP-poly(A) binding inhibition; PABP-poly(A) RNA binding, fluorescence polarization; inhibition, % at 35 µM; 290,000 tested, 1% active; AID 2014;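 active = 50% or more with normal probe brightness, or confirmed in later tests; about a fifth of its hits are not listed in these tables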;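 also: calls also rest on retests at 20 µM and on dose response follow-up; controls were probe without protein and protein plus probe with vehicle; some compounds called inactive have numbers as strong as hits; many hits fall short of the cut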
Target sequence (P11940 whole entry, looked up): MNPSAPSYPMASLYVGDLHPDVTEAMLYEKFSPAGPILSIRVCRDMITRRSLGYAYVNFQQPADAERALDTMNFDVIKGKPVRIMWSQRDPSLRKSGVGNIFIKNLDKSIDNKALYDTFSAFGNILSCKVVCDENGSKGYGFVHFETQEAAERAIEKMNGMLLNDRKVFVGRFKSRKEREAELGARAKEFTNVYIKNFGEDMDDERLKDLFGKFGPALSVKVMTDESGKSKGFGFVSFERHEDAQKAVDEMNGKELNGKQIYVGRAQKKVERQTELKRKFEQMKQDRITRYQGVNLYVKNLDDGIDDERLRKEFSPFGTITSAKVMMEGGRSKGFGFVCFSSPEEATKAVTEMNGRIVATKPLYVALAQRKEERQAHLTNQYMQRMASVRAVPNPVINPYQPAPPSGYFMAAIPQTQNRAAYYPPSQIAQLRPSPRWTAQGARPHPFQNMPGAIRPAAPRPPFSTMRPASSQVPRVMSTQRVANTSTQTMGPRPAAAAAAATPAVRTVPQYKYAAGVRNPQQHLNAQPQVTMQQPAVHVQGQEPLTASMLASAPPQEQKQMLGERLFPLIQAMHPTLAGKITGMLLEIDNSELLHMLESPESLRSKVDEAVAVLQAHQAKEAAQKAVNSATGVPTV
eIF4H FP inh = inhibitors of RNA binding by human eIF4H. Q15056. eIF4H fluorescence polarization binding assay. 290,000 tested, 0.94% active. AID 2012. inhibition, % at 35 µM;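 active = 50% or more with normal probe brightness, or confirmed in later tests; about a fifth of its hits are not listed in these tables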;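 also: calls also rest on retests at 20 µM and on dose response follow-up; 0% = protein and probe with vehicle and 100% = probe without protein; strong numbers were not always called active; many hits fall short of the cut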
Yeast UUG start = yeast start codon fidelity modulation. S. cerevisiae UUG-firefly luciferase reporter, luminescence/redox ratio. activity score, % at 18.7 µM. 350,000 tested, 0.13% active;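 active = replicate mean at a twofold rise or more, about +100% in these data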;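 also: firefly luciferase made from a UUG start codon reports start codon fidelity; reporter light over untreated wells divided by growth signal over untreated wells; some hits fall short of that in this replicate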
MT1-MMP act inh = inhibitors of human MT1-MMP activation; P50281; GFP/RFP ratio change, % at 20 µM; AID 651647; 360,000 tested, 0.061% active; HT1080 RFP-PRO-GFP cells, GFP/RFP ratio fluorescence, overnight; percent of plate control window, DMSO zero;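 active = GFP/RFP ratio change of at least 30% with cell ATP level not reduced by more than half and red fluorescence within 50% of control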; also: strong numbers were not always called active
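Assay system: HT1080 RFP-PRO-GFP cells | Dosing: 20 µM single dose, 1% DMSO | Incubation: Cells overnight before dosing, compound overnight, 37 °C, 5% CO2 | Evaluation: GFP/RFP fluorescence ratio | Control set: DMSO-only wells and HT1080 RFP-L50D-GFP cell wells as references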
MT1-MMP act inh RFP = also measured in MT1-MMP act inh; calls as there; RFP signal change, %; measured here: RFP expression control read;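 0 = vehicle wells; hits needed this value within 50% of zero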
Starred values were filed as active, the others as inactive; i = inactive; . = not tested or not shown; & = joins results of further samples; [ ] = dose if it differs, or a comment. Not all compounds are listed; the hit share may differ from the screen's.

SMILES | CSC inhib | HIV Env fusion | Rce1 inh | PABP polyA inh | eIF4H FP inh | Yeast UUG start | MT1-MMP act inh | MT1-MMP act inh RFP
CC(=O)C(=Nc1ccccc1Cl)NNc1ccc(Cl)cc1 | 27 | -111 | i | 9 | 7 | -25 | 20 | 5
NC(=O)C1=C[C@H](c2csc3ccccc23)C[C@H](OCc2ccc(CO)cc2)O1 | -12 | -14[16.7 µM] | i | -4 | 0 | 43&-23 | -6 | 0
CN1CCN([C@@H]2CS(=O)(=O)N[C@H]2COCc2ccccc2)CC1 | . | 22 | . | . | . | -12 | 2 | 5
Cc1ccc(C2=NNC(C(O)C(O)C(O)C(O)CO)S2)cc1 (stereo not drawn) | 2 | -132 | i | -9 | -7 | -17 | -6 | -2
c1ccc(OCc2nnc3sc(-c4cccs4)nn23)cc1 | -10 | -27 | i | -3 | -1 | -16 | 2 | 3
Nc1nc(SCc2ccccc2)c2ncn(C3CCCO3)c2n1 (stereo not drawn) | . | 0 | . | . | . | -15 | 3 | 3
CCOc1cc(Br)c(/C=C2/C(=O)N(C)C(=S)N2CC(=O)OC)cc1OC | . | 1 | . | -14 | -12 | . | -1 | 0
Cc1cc(C)nc(NC(=O)CSc2nnnn2-c2ccccc2)n1 | -14 | -19 | i | -9 | -7 | -11 | 5 | 2
COc1ccc(C(OC(=O)c2c(C)noc2C)C(=O)NC2CCCC2)cc1 (stereo not drawn) | . | . | i | -8 | 11 | -6 | 0 | 3
S=c1nc(C2CCCCC2)[nH]c2ccccc12 | 2 | 4 | i | 4 | 5 | . | 0 | 0
CCO[C@@H]1OC(C(=O)N2CCN(Cc3ccc4c(c3)OCO4)CC2)=C[C@H](c2ccc3c(c2)OCO3)[C@H]1CCCO | 10 | 10 | i | -3 | -2 | . | . | .
O=C(c1ccccc1)c1nnc(-c2ccccc2F)o1 | -3 | -38 | . | -10 | -2 | -63 | 5 | 15
Cc1cccc(Cl)c1NNC(=O)Nc1c([N+](=O)[O-])c(C)nn1C | -3 | -24 | i | -4 | -3 | . | 0 | 1
Cc1ccc(S(=O)(=O)Nc2ccc3c(c2)nc(CCN2CCCCC2)n3C)cc1 | -4 | 6 | i | 4 | 19 | -9 | -9 | -5
CCn1c(SC(C)C(=O)Nc2nccs2)nnc1-c1ccncc1 (stereo not drawn) | -5 | -3 | i | 2 | -2 | -9 | 0 | 2
Cc1ccc(C(=O)CCC(=O)N(C)CC(=O)Nc2c(Cl)cccc2Cl)cc1 | -5 | 0 | i | -5 | -23 | -17 | 0 | 2
CC(O)[C@H]1CNCCN1CC1(c2ccccc2)CC1 (stereo partly drawn) | -8 | -21 | i | . | . | -15 | 4 | 1
Cc1noc(C)c1S(=O)(=O)Nc1ccc(C(=O)N2CCc3ccccc3C2)cc1 | 0 | . | i | 7 | -8 | -2 | 9 | 1
COC(=O)c1c(NC(=O)c2ccc(C(=O)c3ccccc3)cc2)sc2c1CC(C)(C)NC2(C)C | . | 32 | . | . | . | 16 | 1 | -1
COc1ccccc1-n1c(SCC(=O)Nc2cccc3ccccc23)nc(O)cc1=O | -19 | . | i | -3 | -6 | -21 | 3 | 7
COC(=O)CSc1nc2ccc(C)cc2[nH]1 | -7 | . | i | -2 | 5 | -13 | -3 | -2
CN(Cc1cnn(C)c1)Cc1nc(Cc2ccccc2Cl)no1 | -2 | 15 | i | -3 | 4 | . | 4 | 3
COc1ccccc1NCCC(=O)OCC(=O)Nc1ccc(Cl)cn1 | -6 | . | i | 0 | 12 | -7 | 2 | 6
O=C(CC1CC1)Nc1ccc2c(c1)[C@H]1C[C@H](CC(=O)N3CCc4ccccc4C3)O[C@@H](CO)[C@H]1O2 | . | 15 | . | . | . | -20&-2 | 0 | 2
CN1CCN(NS(=O)(=O)c2cccs2)CC1 | -6 | . | i | -2 | -7 | 8 | -2 | 2
COC(=O)c1c(C)[nH]c(C(=O)/C=C/c2ccccc2F)c1C | 10 | -82 | i | -2 | -13 | . | -2 | -3
COc1ccc(Nc2nc(N)nc(CN(C)C3CCCCC3)n2)cc1 | -12 | -58 | i | -10 | 2 | -15 | 3 | 7
CCCC(C(=O)OCC)P(=O)(c1ccccc1)c1ccccc1 (stereo not drawn) | -10 | 13 | i | -2 | -8 | 0 | 3 | 2
CCn1nc(C)c(CNC(=O)c2cc(COc3ccc(F)cc3Cl)on2)c1C | -5 | 25 | i | -9 | 2 | -18 | -9 | -30
Cn1cnc(S(=O)(=O)Nc2cc(C(F)(F)F)ccc2N2CCOCC2)c1 | -1 | -2 | i | 3 | -8 | . | 2 | 5
CCn1cc([N+](=O)[O-])c(C(=O)N2CCCC2)n1 | . | -12 | i | -7 | -3 | -20 | 1 | 0
CCOc1ccc(C2C(C#N)=C(N)Oc3cc(C)oc(=O)c32)cc1 (stereo not drawn) | -7 | 13 | i | 3 | -7 | 6 | -2 | 4
CCc1ccc(NC(=O)Nc2cc(C(=O)O)ccc2N2CC3CC(C2)c2cccc(=O)n2C3)cc1 (stereo not drawn) | 0 | -10 | i | . | . | 9 | -4 | 2
N#Cc1ccc(Oc2ccc(S(=O)(=O)N3CCOCC3)cn2)cc1 | -1 | . | i | . | . | . | -2 | -2
CNC(=O)N(O)C1N(NC(=O)Nc2cccc3ccccc23)C(=S)SC1(C)C (stereo not drawn) | 23 | 0 | i | 4 | 2 | . | -2 | 3
C/C(CC(=O)Nc1ccccc1)=N\NC(=O)COc1ccc(C)cc1Br | -6 | -4 | i | 39 | 4 | . | -1 | 2
O=[N+]([O-])c1ccc(-c2cnc3ccccc3n2)cc1 | 2 | -65 | i | 0 | -17 | -20 | 2 | -7
Cc1nc2scc(-c3ccc(C(C)(C)C)cc3)c2c(=O)n1N | -9 | 19 | i | 15 | 5 | 16 | -1 | -4
CN1CCN(S(=O)(=O)c2ccc(Sc3nnnn3-c3ccccc3)c([N+](=O)[O-])c2)CC1 | 46 | 33 | i | 0 | -8 | . | -13 | -21
O=c1[nH]c(-c2ccncc2)nc2ccccc12 | 2 | -44 | i | 3 | 12 | -12 | 10 | 7
Cc1nc(N(C)C)ncc1C(=O)O | -6 | . | i | 8 | 2 | 17 | -1 | 2
CC(=O)NCc1nc2ccccc2n1C(C)C | -18 | 31 | i | -10 | -8 | -17 | 2 | 9
Cc1cc(N2CCN(c3nc(-c4ccccc4)cs3)CC2)c2ccccc2n1 | 57 | 23 | i | -12 | -6 | 6 | -6 | -24
FC(F)Sc1ccc(NC(=S)NC2CCCC2)cc1 | 24 | -5 | i | -13 | -17 | . | 1 | -5
COc1ccc(NC(=S)N(CCc2ccncc2)C(C)C)cc1Cl | . | 4 | . | . | . | -15 | 1 | -2
Cc1cccn2cc(-c3ccc(S(=O)(=O)N4CCCCC4)cc3)nc12 | -2 | -16 | i | -8 | 0 | . | 3 | -8
CCN(CC)CC#CC(C)OCOCC#CCOC (stereo not drawn) | -5 | . | i | -6 | 1 | -14 | -4 | -3
CCC(C)NC(=O)Cn1cnc2sc(C)c(S(=O)(=O)N3CCCCC3)c2c1=O (stereo not drawn) | -10 | 2 | i | 5 | -5 | -10 | 2 | -2
COc1ccc(CC(=O)NCc2ccccc2)cc1 | 62 | -131 | i | -3 | 5 | -18 | -6 | -9
CC(C)(C)c1n[nH]c(=S)n(/N=C/c2cccs2)c1=O | -16 | -23 | i | 2 | 12 | . | 1 | 2
COCCn1c(SCC(=O)c2ccc3c(c2)OCCO3)nnc1-c1ccco1 | -5 | 13 | i | -12 | -11 | -28 | 2 | 7
C/C(=N\OC(=O)c1cccc(C(F)(F)F)c1)c1sc(-c2ccccc2)nc1C | -7 | . | i | -4 | 0 | -5 | 0 | 5
Cc1ccc(S(=O)(=O)NCC(=O)OCC(=O)NC(=O)NC2CCCC2)cc1 | 5 | -1 | i | -12 | -10 | . | 1 | 3
N#Cc1ccccc1S(=O)(=O)N1CCN(C(=O)c2ccc(-n3cncn3)c([N+](=O)[O-])c2)CC1 | -6 | -16 | i | . | . | -14 | 6 | 1
COC(=O)c1cc(NC(=O)CSc2nnc(N)s2)ccc1Cl | -3 | -14 | i | 6 | -8 | -12 | -15 | -12
CCn1c(SCC(=O)Nc2cc(C)on2)nc2c(c1=O)SCC2 | . | -15 | i | -4 | -2 | -22 | -4 | 1
COc1ccccc1CNS(=O)(=O)c1ccc(-n2cnnn2)c(OC)c1 | -6 | -2 | i | 0 | -2 | -16 | 2 | 1
CC1Cc2cc(/C(O)=C3\C(=O)C(=O)N(Cc4ccncc4)C3c3ccccc3F)ccc2O1 (stereo not drawn) | 0 | 3 | i | 9 | -9 | 19 | 1 | 3
Cc1ccc(N(Cc2cc3ccccc3[nH]c2=O)C(=O)c2ccco2)c(C)c1 | -7 | . | i | -3 | -3 | 11 | -1 | -3
CCOc1ccc(C(=O)NC(=S)N(Cc2ccccc2)Cc2ccccc2)cc1 | 28 | . | i | 2 | -3 | 1 | 5 | -4
Following part:
SMILES | CSC inhib | HIV Env fusion | Rce1 inh | PABP polyA inh | eIF4H FP inh | Yeast UUG start | MT1-MMP act inh | MT1-MMP act inh RFP
N#CCCC1(CCC#N)c2ccccc2C(=O)c2ccccc21 | . | -28 | . | . | . | -22 | 3 | 1
Cc1ccc(N(CC(=O)Nc2cc(C)ccc2C)S(C)(=O)=O)cc1 | -7 | 5 | i | 1 | -5 | -14 | -1 | -4
CC(=O)c1ccc(NC(=O)CC23CC4CC(C2)CC(n2nnc(C)n2)(C4)C3)cc1 | -5 | -20 | i | -7 | 1 | . | 10 | 2
COc1cc(C(=O)NC(C(=O)Nc2cccc(C(C)=O)c2)C(C)C)cc(OC)c1OC (stereo not drawn) | -10 | -4 | i | 5 | 0 | . | 4 | 0
COc1ccc(CCNC(=O)CN2C(=O)NC3(CCc4ccccc43)C2=O)cc1 (stereo not drawn) | -10 | . | . | . | . | 45 | 3 | 1
COc1cccc(CC(=O)N2CCC(n3nccc3NC(=O)C3CCOC3)CC2)c1 (stereo not drawn) | -10 | -8 | i | 3 | 0 | -10 | 0 | 3
COc1ccc(C(=O)N/C(=C\c2cn(C)c3ccccc23)C(=O)NCCCN2CCOCC2)cc1OC | -20 | -7 | i | -4 | -2 | -2 | 2 | 4
CCc1ccccc1NC(=O)c1ccccc1Sc1ccc([N+](=O)[O-])cc1Cl | 26 | 8 | i | 6 | 8 | . | -2 | -7
C/C(Cl)=C\Cn1c(=O)c2c(nc3n2CCS3)n(C)c1=O | -7 | . | i | -2 | 1 | -6 | 6 | 2
CS(=O)(=O)N(CCc1ccccc1)CC(=O)NCc1ccncc1 | . | . | i | -9 | -13 | -1 | 1 | -2
CCOC(=O)Cc1csc(NS(=O)(=O)c2ccc(OC)cc2)n1 | 17 | 4 | i | -7 | 2 | . | -6 | 3
Cc1ccc(C)c(C(=O)n2cnnc2N)c1 | 4 | . | . | -4 | -4 | -16 | 3 | 1
CS(=O)(=O)N(CCc1ccccc1)CC(=O)Nc1ccc(Br)cc1F | -11 | -85 | i | -2 | -3 | -6 | 2 | -2
COc1ccc(OC)c(NC(=O)Nc2cccc(Cn3cccn3)c2)c1 | . | -29 | i | -10 | -6 | -15 | 6 | 3

Pulled one by one from above (4):
SMILES | CSC inhib | HIV Env fusion | Rce1 inh | PABP polyA inh | eIF4H FP inh | Yeast UUG start | MT1-MMP act inh | MT1-MMP act inh RFP
Cn1cnc(S(=O)(=O)Nc2cc(C(F)(F)F)ccc2N2CCOCC2)c1 | -1 | -2 | i | 3 | -8 | . | 2 | 5
CC(O)[C@H]1CNCCN1CC1(c2ccccc2)CC1 (stereo partly drawn) | -8 | -21 | i | . | . | -15 | 4 | 1
Cc1cccn2cc(-c3ccc(S(=O)(=O)N4CCCCC4)cc3)nc12 | -2 | -16 | i | -8 | 0 | . | 3 | -8
C/C(=N\OC(=O)c1cccc(C(F)(F)F)c1)c1sc(-c2ccccc2)nc1C | -7 | . | i | -4 | 0 | -5 | 0 | 5
